# HPGD inh: qHTS Assay for Inhibitors of HPGD (15-Hydroxyprostaglandin Dehydrogenase). AID 894, 2007. 150,000 compounds, 4.3% hits. Potency, µM, inactives show at the top dose activity change, negative = inhibition, hits mostly inhibitors. 15-hydroxyprostaglandin dehydrogenase [NAD(+)] (Homo sapiens), P15428. purified HPGD, NADH fluorescence kinetic, PGE2 substrate; active = well fitted inhibition curve with a large enough effect (not every such curve was filed as active); inconclusive = small, poorly fitted or top-dose-only effect, or another doubt; inactive = no such curve, though single readings can be large or run the other way;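 further: top concentration of the series not given in the record; plate controls included wells without enzyme; inactives centre near -10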
# Target sequence (P15428 whole entry, looked up): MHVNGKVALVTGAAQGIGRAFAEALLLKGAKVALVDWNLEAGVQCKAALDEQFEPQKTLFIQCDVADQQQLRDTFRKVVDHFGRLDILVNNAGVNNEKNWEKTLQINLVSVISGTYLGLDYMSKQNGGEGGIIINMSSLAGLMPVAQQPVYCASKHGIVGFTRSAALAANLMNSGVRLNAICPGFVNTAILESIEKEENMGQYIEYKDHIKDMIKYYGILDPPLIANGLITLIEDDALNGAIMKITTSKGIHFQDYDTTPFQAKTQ
#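 20 nM HPGD preincubated 15 min at room temperature with compound in 50 mM Tris-HCl pH 8, 0.01% Tween 20. Started with 1 mM NAD+ and 30 uM prostaglandin E2; NADH fluorescence (360/450 nm) read 5 times over 30-s intervals, last minus first.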
# The depositor's hits bear a star; u = inconclusive. On the % scale 0 is the no-effect control and ±100 the full control effect; potency means the concentration at half of the fitted maximal effect. This is a subset (hit frequency here may not be typical).
# The opening five entries as a preview:
SMILES,HPGD inh
Cc1ccc(-n2c3nc(=O)[nH]c(=O)c-3cc3c(C)nn(-c4ccccc4)c32)c(C)c1,u
CC(=O)Nc1ccc(-c2csc(NCc3ccco3)n2)cc1,u
O=C(N1CCOCC1)N1CCN(S(=O)(=O)c2ccccc2)C1,3.2%
O=C(OCc1nnc(-c2ccccc2)o1)C1=COCCO1,-28.2%
CN1C[C@@H]2C(c3ccc(Cl)nc3)C3(c4ccccc4)CC2(C3)[C@H]1c1ccccc1 (stereo partly specified),-10.1%

# Main list, repeating the preview:
SMILES,HPGD inh
Cc1ccc(-n2c3nc(=O)[nH]c(=O)c-3cc3c(C)nn(-c4ccccc4)c32)c(C)c1,u
CC(=O)Nc1ccc(-c2csc(NCc3ccco3)n2)cc1,u
O=C(N1CCOCC1)N1CCN(S(=O)(=O)c2ccccc2)C1,3.2%
O=C(OCc1nnc(-c2ccccc2)o1)C1=COCCO1,-28.2%
CN1C[C@@H]2C(c3ccc(Cl)nc3)C3(c4ccccc4)CC2(C3)[C@H]1c1ccccc1 (stereo partly specified),-10.1%
O=C(NCc1cccc(Cl)c1)c1cnccn1,-19.1%
CC(=O)N1N=C(c2cccc([N+](=O)[O-])c2)OC1c1ccccc1Cl (stereo unspecified),-13.9%
Cc1ccc2nc(NC(=O)C3CCN(S(=O)(=O)c4ccc5c(c4)oc(=O)n5C)CC3)sc2c1,u
Cc1ccc(S(=O)(=O)NCc2ccc(C(=O)N(C)CCC#N)cc2)cc1,0.6%
COc1ccccc1-n1c(C)nnc1SCC(=O)Nc1cccc(C(C)=O)c1,-2.2%
CCOc1ccc(NC(=O)CSC2=NCCN2)cc1,0.5%
O=C1OC(Nc2ccccn2)c2ccccc21 (stereo unspecified),-1.3%
Nc1ccc(O)c(-c2nc3ccccc3s2)c1,-12.8%
COc1cc(/C=C2\SC(=S)N(Nc3ncc(C(F)(F)F)cc3Cl)C2=O)ccc1O,-11.6%
COC(=O)c1cccc(N(C(=O)c2cnccn2)C(C(=O)NCc2ccccc2)c2ccco2)c1 (stereo unspecified),-7.5%
C=CCCC(=O)Nc1ccc(COC(=O)N2CCOCC2)cc1,-5.6%
c1ccc2c(CSc3nnc(-c4ccncc4)o3)cccc2c1,25.1µM*
CCOC(=O)N1CCN(c2nc(-c3ccc(OC)cc3)no2)CC1,-12.7%
O=C(Cn1cnc([N+](=O)[O-])n1)N/N=C/c1ccccc1O,-4.4%
Oc1ccc(/C=N/NC(=S)NCc2ccco2)cc1,-13.8%
CCn1c2ccccc2c2nnc(SCc3cc(=O)n4ccsc4n3)nc21,-19.8%
O=C1c2ccccc2C(O)N1c1cccnc1 (stereo unspecified),-23.0%
CCN(CC)c1ccc(N2C(=O)c3ccccc3C2=O)cc1,-11.5%
C/C(CCc1ccccc1)=N\NC(=O)c1ccccc1[N+](=O)[O-],-6.2%
CCNc1nc(NCC)n2c(SC(C)C(=O)c3ccc(C)cc3)nnc2n1 (stereo unspecified),-20.0%
# More results
SMILES,HPGD inh
COc1ccc(C)cc1NC(=O)CSc1nnc(-c2ccc(C)cc2)o1,-8.9%
COC(=O)C1=C(C(=O)OC)[C@@H]2Nc3ccccc3[C@@]23C[C@@H](C(=O)OC)N(S(=O)(=O)c2ccc(C)cc2)C3=N1,-4.5%
Cn1c(NC(=O)c2ccc(Cl)cc2Cl)cc(=O)n(C)c1=O,-13.1%
CC(Sc1ccccc1)C(=O)Nc1ccc(N2CCOCC2)cc1 (stereo unspecified),-11.6%
CCOC(=O)CSc1nnc(CSc2nc(C)cc(C)n2)n1Cc1ccco1,-15.5%
O=C(Cn1c(=O)sc2ccccc21)NCCOc1ccccc1F,-11.6%
CC1(C)CC(=O)C2=C(C1)OC(N)=C(C#N)C2C1CC=CCC1 (stereo unspecified),-24.9%
O=[N+]([O-])c1ccc(O)c(/C=N\N=C2c3ccccc3-c3ccccc32)c1,-17.7%
COc1cccc(C(=O)Nn2c(C)nnc2-n2nc(C)cc2C)c1,-8.8%
CCNc1c2c(nc3ccccc13)CC(C)(C)CC2=O,-5.4%
O=C(Nc1ccc(OC(F)(F)C(F)F)c(NC(=O)c2cccc(F)c2)c1)c1cccc(F)c1,-4.7%
COc1cc(/C=C(\C#N)C(=O)Nc2ccc3ccccc3c2)c([N+](=O)[O-])cc1OC,-5.5%
Cc1cccc(NC(=O)c2ccc(COc3cccc4ccccc34)o2)n1,-7.1%
COC(=O)C(NC(=O)c1ccccc1)(Nc1cc(C)cc(C)n1)C(F)(F)F (stereo unspecified),-12.2%
O=C1c2ccccc2-c2cccc(NS(=O)(=O)c3ccc(C(F)(F)F)cc3)c21,-19.7%
Cc1ccc(NC(=O)c2c(Cl)n(C)c3ccccc23)cc1,-14.9%
c1ccc2c(c1)ncn2Cc1nnc2sc(-c3ccncc3)nn12,7.94µM*
Cc1ccc(N2CC(C(=O)N3CCN(C(=O)c4ccco4)CC3)CC2=O)cc1 (stereo unspecified),-4.6%
CC1CCCCC1NC(=O)CN1CCN(Cc2ccccc2Cl)C1=O (stereo unspecified),-15.6%
Cn1c(CCNC(=O)c2ccco2)nc2cc(NC(=O)c3ccco3)ccc21,-16.4%
CCOc1ccccc1NC(=O)CN(c1ccc(C)cc1)S(=O)(=O)c1c(C)noc1C,-12.1%
CO[Si](CCCNCCC[Si](OC)(OC)OC)(OC)OC,-5.8%
CCC1(c2ccc(F)cc2)NC(=O)N(CC(=O)Nc2ccc(-c3nc4ccc(C)cc4s3)cc2)C1=O (stereo unspecified),u
Cc1noc(C)c1COc1ccc(C(=O)OCC(=O)Nc2cccc(S(=O)(=O)N3CCOCC3)c2)cc1,-3.4%
O=C(Nc1cccc(Cl)c1)c1cnn2cccnc12,-12.1%

# Three structures out of the list, arranged by length of the SMILES, ascending.
SMILES,HPGD inh
O=C(Cn1c(=O)sc2ccccc21)NCCOc1ccccc1F,-11.6%
c1ccc2c(c1)ncn2Cc1nnc2sc(-c3ccncc3)nn12,7.94µM*
COC(=O)C1=C(C(=O)OC)[C@@H]2Nc3ccccc3[C@@]23C[C@@H](C(=O)OC)N(S(=O)(=O)c2ccc(C)cc2)C3=N1,-4.5%

# New compounds follow.
SMILES,HPGD inh
COc1cc(C2SCC(=O)N2CCCN(C)C)cc(OC)c1OC (stereo unspecified),-5.0%
COc1ccc(C)cc1Nc1cc(C)nc2ncnn12,5.01µM*
O=C1c2ccccc2C(=O)N1c1ccc(Cl)cc1,-17.5%
Cc1ccc2cc(COC(=O)C3CCCO3)c(=O)[nH]c2c1 (stereo unspecified),-12.0%
O=C(Cc1n[nH]c(=O)[nH]c1=O)N/N=C/c1cccc(O)c1,-4.2%
CC1CCCC(C)N1CCNC(=O)CCn1nc(-c2ccccc2)ccc1=O (stereo unspecified),-15.0%
O=C(Nc1ccc(N2CCCC(O)C2)cc1)c1snc2c(=O)[nH]cnc12 (stereo unspecified),u
Cc1nn(-c2ccccc2)c(Cl)c1/C=C1\SC(=S)N(C)C1=O,-19.9%
CS(=O)(=O)c1nc(-c2ccccc2)c(-c2ccccc2)[nH]1,u
O=C(Nc1ccc(O)c(-c2nc3ccccc3s2)c1)C1=COCCO1,-4.9%
Cc1ccc(Cn2c(CN3CC(C)OC(C)C3)nc3c2c(=O)[nH]c(=O)n3C)cc1 (stereo unspecified),-8.1%
O=C(CCS(=O)(=O)c1ccc(Br)cc1)Nc1ccccn1,0.3%
COc1cc(CN(C2CCCCC2)S(=O)(=O)c2ccc(S(=O)(=O)N(C)C3CCCCC3)cc2)cc(OC)c1OC,-5.8%
COc1ccc(NC(=O)CSc2nnc(C3CC3)n2N)cc1,-11.0%
O=Cc1ccc(OCC(=O)NC(=O)NC2CCCCC2)cc1,-8.6%
Cc1ccc(C2(C)NC(=O)N(CC(=O)NC(=O)NCCC(C)C)C2=O)cc1 (stereo unspecified),-11.9%
O=C(OCCOc1ccccc1Cl)c1ccc(-n2cnnn2)cc1,u
CN(C)CC/C=C1/c2ccccc2COc2ccccc21,1.6%
COC(=O)C1=CN(CCCN2CCCC2=O)C=C(C(=O)OC)C1c1cccs1,u
O=C(c1ccc(C#Cc2ccccc2)o1)N1CCN(c2ccccn2)CC1,-7.7%
CN(C)c1nc2c(Br)c(Br)c(Br)c(Br)c2[nH]1,-19.1%
c1ccc2c(c1)C(=NCC1CCCO1)NC2=NCC1CCCO1 (stereo unspecified),u
Cc1ccc(CNS(=O)(=O)NCc2ccccc2)cc1,-9.6%
Cc1cccc(N(Cc2cc3ccccc3[nH]c2=O)S(=O)(=O)c2ccccc2)c1,-19.6%
O=C(NCC(c1cccs1)N1CCOCC1)c1ccccc1NS(=O)(=O)c1cccc([N+](=O)[O-])c1 (stereo unspecified),-3.9%
# Other results follow:
SMILES,HPGD inh
Cc1ccc(NC(=O)CSc2nc(O)c(Cc3ccccc3)c(=O)n2-c2ccccc2)cc1,-12.7%
Cc1cccc(-n2ncc3c(NCCCO)ncnc32)c1,u
COc1ccc(C(=O)CSc2nnc(CNc3nc(-c4ccccc4)cs3)n2C)cc1,-10.9%
Cc1ccc(-n2cnc3cc(NCc4cccs4)ccc32)cc1,u
COc1ccc(Cl)cc1Nc1nc(C)cc(=O)[nH]1,-3.6%
Cc1ccc2nc3n(c(=O)c2c1)CCC3,0.9%
COc1ccccc1C1CC(c2ccc(Br)cc2)=NN1C(=O)c1cccnc1 (stereo unspecified),u
COC(=O)Nc1ccc(S(=O)(=O)N2CCN(c3ccc(F)cc3)CC2)cc1,-12.3%
Brc1ccc(C2Nc3cccc4cccc(c34)N2)s1,-20.5%
Cc1nnc(SCC(=O)NC(=O)NCc2ccco2)n1Cc1ccccc1,-19.4%
CC[C@@H]1OC(=O)[C@H](C)[C@H](O[C@@H]2C[C@](C)(OC)[C@H](O)[C@H](C)O2)[C@H](C)[C@H](O[C@@H]2O[C@@H](C)C[C@@H](N(C)C)[C@@H]2O)[C@](C)(O)C[C@H](C)C(=NOCOCCOC)[C@H](C)[C@H](O)[C@]1(C)O,0.9%
O=C(CN1CCN(S(=O)(=O)c2ccc3ccccc3c2)CC1)Nc1ccc2c(c1)CCC2,-19.7%
O=C(O)c1cc(S(=O)(=O)Nc2ccc3c(c2)OCCO3)c(Cl)cc1Cl,-2.5%
O=C(c1nc2nc(-c3ccccc3)cc(C(F)(F)F)n2n1)N1CCCCC1,u
Cc1ccc(C)c(SCC(=O)OCC(=O)Nc2ncc(C(F)(F)F)cc2Cl)c1,-21.4%
CCOC(=O)c1nn(-c2ccccc2)c(C(=O)OCC)c1N,u
O=C(c1ccc(Cl)cc1)N1CCN(c2cc(=O)[nH]nc2-c2ccccc2)CC1,0.7%
O=C(N/N=C/c1c[nH]c2ccccc12)c1[nH]c2ccc(Br)cc2c1-c1ccccc1,u
Cc1cccc(N2C(=O)CC(N3CCN(Cc4ccc5c(c4)OCO5)CC3)C2=O)c1 (stereo unspecified),-1.1%
COC(CNC(=O)c1cc(C(=O)c2c(-c3c(Cl)cccc3Cl)noc2C)c[nH]1)OC,-21.9%
CC(C)(Oc1ccc(Cl)cc1)C(=O)NC1CCSC1=O (stereo unspecified),-7.5%
CC(=O)c1c(C)[nH]c(C(=O)OCc2ccccc2)c1C,-5.1%
CNc1c([N+](=O)[O-])cnn1-c1ccc(Cl)cc1,-10.3%
CCn1c(CNc2ccc(OC)cc2)nnc1SCC(=O)Nc1ccc(F)cc1,-4.4%
Cc1ccc(SCC(=O)NC(=O)NCc2ccccc2)c(C)c1,-1.7%
# Next part
SMILES,HPGD inh
O=C(Nc1cccc(F)c1)N1CCC2(CC1)CCN(C(=O)c1cccc(F)c1)CC2,-8.3%
Cc1ccc(S(=O)(=O)CCC(=O)OCC(=O)Nc2ncc(Cl)cc2Cl)cc1,u
COc1ccc(N2CCN(Cc3ccc(Br)s3)CC2)cc1,-11.4%
Cc1cc(C)c(C)c(S(=O)(=O)N2C(=S)NC(=O)C2C(C)C)c1C (stereo unspecified),u
COC(=O)c1[nH]c2ccc(C)cc2c1NC(=O)CCN1CCN(C2CCCCC2)CC1,-29.4%
O=c1[nH]c2ccc(S(=O)(=O)N3CCN(Cc4ccccc4)CC3)cc2[nH]c1=O,-19.1%
O=C1C(C23CC4CC(CC(C4)C2)C3)C(=O)N(c2ccccc2)N1c1ccccc1,1.9%
Cc1ccc(NC(=O)/C(CN(C)C)=N\O)cc1,-2.5%
Cc1cccc(NC2(C(F)(F)F)N=C3SCCN3C2=O)n1 (stereo unspecified),-8.8%
O=C(COc1ccc2ccccc2c1)NNC(=O)Cc1ccccc1,-6.4%
CC1(C)Cc2c(sc(/N=C/N3CCCC3)c2C#N)C(C)(C)N1,-8.9%
CN(C1CCS(=O)(=O)C1)S(=O)(=O)c1ccccc1[N+](=O)[O-] (stereo unspecified),-14.8%
CCCCCCn1c(N2CCN(c3ccccc3)CC2)nc2c1c(=O)[nH]c(=O)n2C,-4.0%
COc1ccc(CSc2nnc(C)n2N)cc1,1.1%
CCS(=O)(=O)N1CCC(C(=O)Nc2cccc(C(C)=O)c2)CC1,-3.7%
COC(=O)C1C(C(C)C)N(c2ccccc2)OC1(C)O (stereo unspecified),-5.3%
CC1=C(C)CC(C(=O)NNC(=O)c2ccccc2O)C(C(=O)O)C1 (stereo unspecified),u
CCOc1ccc(NC(=S)NC(C)c2cccs2)cc1 (stereo unspecified),-16.9%
CCOC(=O)c1oc2ccc(CNCCO)c(Cl)c2c1C,-1.9%
Cc1cc(C)n(C(=O)c2c([N+](=O)[O-])cnn2C)n1,4.1%
CCn1c(SCC(=O)N2CCc3ccccc3C2)nc2c1c(=O)n(C)c(=O)n2C,-4.6%
Cc1ccc(N2C(=O)c3ccccc3C2=O)cc1C,-5.9%
CCN(CC)S(=O)(=O)c1ccc(C2CNC(=O)C2)cc1 (stereo unspecified),-7.9%
Cc1cccn2c(=O)c3cc(C(=O)O)n(C)c3nc12,u
O=C(COC(=O)c1ccc([N+](=O)[O-])s1)Nc1ncc(C(F)(F)F)cc1Cl,-27.0%
Cc1ccc(C)n1-c1ccc(C(=O)Nc2ccccc2)cc1,15.8µM*
